Calb FLC: C. albicans growth modulation with fluconazole; 0.57% of 300,000 active; C. albicans CaCi-2 (fluconazole-resistant clinical isolate) + fluconazole, Alamar Blue growth, 48 h; growth inhibition, % (no concentration beside the values);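 active means most replicates above 75%; inconclusive means exactly half above 75%; inactive means most below 75%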;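 further: all wells also contain fluconazole at 8 µg/ml as a sub-toxic cotreatment; 0% = median of DMSO wells and 100% = median of geldanamycin control wells; wells of about 8 µL received 7.5 nL stock; the first replicate is given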
A1 inh: inhibitors of the anti-apoptotic protein A1, read as caspase activation; MEF A1-2A-BIM cells, Caspase-Glo 3/7 luminescence, 3 h; percent of clofoctol response, vehicle zero; caspase activation, % (no concentration beside the values); 0.066% of 330,000 active;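 active means over half of replicate activation scores above 10%, or exactly half above 10 with the replicate mean above 10; inconclusive means replicate mean below 10 yet half the replicates above 10; inactive means over half of replicates below 10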;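 further: wells of about 30 µL received 50 nL stock; many hits fall short of the cut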
UCH37 inh: blocks the human deubiquitinase UCH37; purified proteasome/UCH37, Ub-AMC cleavage fluorescence; Q9Y5K5; 0.33% of 330,000 active; inhibition, % (test concentration not listed); AID 588478;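 active means mean of two replicates above 20%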;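 further: 0% = compound-free wells with enzyme and 100% = wells lacking proteasome; stock transfer was 100 nL into about 20 µL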
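assay system = human UCH37 enzyme supplied as purified proteasome complex | amount = proteasome at 0.15 nM in the dispensed enzyme solution | schedule = 30 min compound-proteasome preincubation then 25 min substrate reaction, room temperature | measured by = fluorescence, ex 355 nm, em 460 nm | benchmarks = no-proteasome wells (full inhibition) and compound-free wells (no inhibition)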
T cruzi repl: blocks replication of Trypanosoma cruzi. T. cruzi beta-gal in NIH3T3, luminescence, 90 h. inhibition, % (concentration not given with the values). 1.4% of 300,000 active. AID 1885;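 active means mean inhibition across valid replicates above about 55%, limit read from the data; inconclusive means mean below that limit but half or more replicates reach it; inactive means mean below it, under half of replicates reach it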;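 further: signal also drops with host cell toxicity which is not excluded here; 0% = plate median of DMSO wells and 100% = zero luminescence signal; higher percent means less beta-gal luminescence so fewer parasites; stock transfer was 50 nL into about 50 µL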
RanGTP-Impb inh: disruptors of Ran-importin-beta complex formation – biochemical, FRET, CFP-Ran, YFP-importin-beta, homogeneous, primary screen; cell-free CFP-Ran/YFP-importin-beta FRET ratio; inhibition, % (concentration not given with the values); 1.1% of 300,000 active; AID 2216;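 active means most replicates above 15%; inconclusive means exactly half above 15%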;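 further: 0% = DMSO wells and 100% = Ran loaded with GDP instead of GTP; wells of about 40 µL received 100 nL stock; the first replicate is given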
LANA-H2A inh: blocks KSHV LANA binding to histone H2A/H2B | Q9QR71 | cell-free LANA-H2A/H2B peptide, fluorescence polarization | inhibition, % (concentration not given with the values) | 0.6% of 320,000 active | AID 2629; in the data active means inhibition mostly above about 10%, no sharp cut-off; inactive means mostly below about 6.7%;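 further: stock transfer was 7.5 nL into about 10 µL; 0% = median of vehicle wells and 100% = median of positive control wells; one replicate is shown; the record names a cut of 25% in any replicate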
Target sequence (Q9QR71 whole entry, looked up): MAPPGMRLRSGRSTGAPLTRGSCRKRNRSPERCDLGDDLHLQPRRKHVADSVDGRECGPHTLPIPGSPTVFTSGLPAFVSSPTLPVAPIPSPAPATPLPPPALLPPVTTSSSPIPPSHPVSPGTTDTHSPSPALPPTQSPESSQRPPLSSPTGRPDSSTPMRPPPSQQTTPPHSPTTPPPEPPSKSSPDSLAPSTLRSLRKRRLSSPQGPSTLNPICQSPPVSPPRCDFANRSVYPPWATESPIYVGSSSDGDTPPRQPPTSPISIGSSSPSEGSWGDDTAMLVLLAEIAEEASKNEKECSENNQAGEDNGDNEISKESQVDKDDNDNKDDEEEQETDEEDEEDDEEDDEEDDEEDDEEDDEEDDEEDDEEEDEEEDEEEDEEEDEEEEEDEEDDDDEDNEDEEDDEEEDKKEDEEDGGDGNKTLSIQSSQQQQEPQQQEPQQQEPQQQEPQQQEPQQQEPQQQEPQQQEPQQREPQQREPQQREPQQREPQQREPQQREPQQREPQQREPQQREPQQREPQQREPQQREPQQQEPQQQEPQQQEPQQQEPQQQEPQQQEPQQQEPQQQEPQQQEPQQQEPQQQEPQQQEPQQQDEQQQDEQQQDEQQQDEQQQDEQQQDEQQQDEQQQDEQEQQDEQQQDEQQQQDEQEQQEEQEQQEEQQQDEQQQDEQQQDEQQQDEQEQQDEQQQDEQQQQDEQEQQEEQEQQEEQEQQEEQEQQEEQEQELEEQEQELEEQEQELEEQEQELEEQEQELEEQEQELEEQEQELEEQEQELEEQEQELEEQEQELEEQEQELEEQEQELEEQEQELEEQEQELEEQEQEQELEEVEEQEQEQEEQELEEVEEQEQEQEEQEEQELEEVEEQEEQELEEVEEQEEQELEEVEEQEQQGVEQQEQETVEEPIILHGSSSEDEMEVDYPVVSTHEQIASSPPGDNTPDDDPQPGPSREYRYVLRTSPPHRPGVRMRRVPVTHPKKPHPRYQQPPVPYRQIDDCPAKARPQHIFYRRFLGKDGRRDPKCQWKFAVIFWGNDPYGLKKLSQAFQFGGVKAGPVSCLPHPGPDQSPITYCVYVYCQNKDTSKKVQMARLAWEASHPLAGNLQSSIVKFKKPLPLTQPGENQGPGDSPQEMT
Beta2AR agonist: agonists of human beta-2 adrenergic receptor inducing internalization | P07550 | AID 504454 | Am2.2-beta2AR cells, FAP receptor internalization, flow cytometry; reference of the scale not given here | 0.43% of 340,000 active | response, % (test concentration not listed);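 active means response above a set limit, near 3 SD of response in nonfluorescent compounds, cut at about 42% in these data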;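 further: stock transfer was 100 nL into about 11 µL; a reference agonist was the positive control; negative values mostly stem from fluorescent compounds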
Beta cell apopt: blocks beta cell apoptosis; protection from apoptosis, % (test concentration not listed); 0.8% of 300,000 active; INS-1E cytokine-induced death, ATP luminescence, 48 h; percent of positive-control rescue, neutral wells zero;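 active means all replicates at 75% or more, or half of them and the mean; inconclusive means half reach 75% but not the mean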;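 further: 0% = cytokine-treated negative control wells and 100% = positive control rescue; higher means more ATP so stronger rescue from cytokine killing; wells of about 40 µL received 100 nL stock; the first replicate is given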
Starred values were filed as active, the others as inactive.

A first look:
Results for O=C(c1cccc(S(=O)(=O)Nc2ccc(F)cc2)c1)N1CCC1 ?
A1 inh: 0.6; UCH37 inh: 0.9; LANA-H2A inh: 3.2; Beta2AR agonist: -3; Beta cell apopt: -6

How did Cc1ccc(C(=O)NC2CCN(C(=O)Nc3ccccc3)CC2)cc1 do in these assays?
Calb FLC: 6; A1 inh: -0.7; UCH37 inh: 2.3; T cruzi repl: 0; RanGTP-Impb inh: 1.7; LANA-H2A inh: 2.7; Beta2AR agonist: -3; Beta cell apopt: -4

Main list, from the start:
Results for O=C(c1cccc(S(=O)(=O)Nc2ccc(F)cc2)c1)N1CCC1 ?
A1 inh: 0.6; UCH37 inh: 0.9; LANA-H2A inh: 3.2; Beta2AR agonist: -3; Beta cell apopt: -6

How did Cc1ccc(C(=O)NC2CCN(C(=O)Nc3ccccc3)CC2)cc1 do in these assays?
Calb FLC: 6; A1 inh: -0.7; UCH37 inh: 2.3; T cruzi repl: 0; RanGTP-Impb inh: 1.7; LANA-H2A inh: 2.7; Beta2AR agonist: -3; Beta cell apopt: -4

Results for CCc1nc2ccccc2c(C(=O)OCC(=O)NCCCN2CCCC2=O)c1C ?
Calb FLC: -3; A1 inh: 1.0; UCH37 inh: 3.9; T cruzi repl: -4; RanGTP-Impb inh: -4.1; LANA-H2A inh: 3.9; Beta2AR agonist: 0; Beta cell apopt: -2

Results for CCc1ccc(NC(=O)C/C(C)=N/NC(=O)COc2ccccc2C)cc1 ?
Calb FLC: 15; A1 inh: 0.0; T cruzi repl: -11; RanGTP-Impb inh: 23; LANA-H2A inh: 4.0; Beta2AR agonist: 2; Beta cell apopt: 1

How did O=C(c1ccc(S(=O)(=O)c2ccccc2Cl)c([N+](=O)[O-])c1)N1CCCCCC1 do in these assays?
Calb FLC: 2; A1 inh: -0.1; UCH37 inh: -0.1; T cruzi repl: -9; RanGTP-Impb inh: 3.4; LANA-H2A inh: 1.8; Beta2AR agonist: 2; Beta cell apopt: 35

How did COC(OC)c1ccnc(-c2ccc(OC(=O)c3cccs3)cc2)n1 do in these assays?
Calb FLC: 26; A1 inh: -0.4; UCH37 inh: 2.2; T cruzi repl: 0; RanGTP-Impb inh: 5.9; LANA-H2A inh: 1.0; Beta2AR agonist: -5; Beta cell apopt: -1

What do the screens show for `Cc1ccc(C)c(S(=O)(=O)N2CCN(C(=O)CCNC(=O)c3ccc(Br)cc3)CC2)c1`?
Calb FLC: -6; A1 inh: 0.9; UCH37 inh: 4.1; T cruzi repl: 11; RanGTP-Impb inh: 0.7; LANA-H2A inh: -4.2; Beta2AR agonist: 4; Beta cell apopt: 2

How did O=C(Nc1ccccc1C(=O)N/N=C/c1ccc(F)cc1)c1ccccc1Br do in these assays?
Calb FLC: 1; A1 inh: 0.1; T cruzi repl: 5; RanGTP-Impb inh: 0.0; LANA-H2A inh: -3.9; Beta2AR agonist: -2; Beta cell apopt: -1

How did CC(C)COc1ccc(CNC(=S)NCc2ccccc2)cc1 do in these assays?
Calb FLC: -29; A1 inh: -0.4; UCH37 inh: 1.0; T cruzi repl: 44; RanGTP-Impb inh: -1.6; LANA-H2A inh: -2.4; Beta2AR agonist: -33; Beta cell apopt: 0

What do the screens show for `Cc1ccc(N2CC(C(=O)Nc3nnc(SCC(=O)N4CCOCC4)s3)CC2=O)cc1` (configuration not stated)?
Calb FLC: -2; A1 inh: 0.8; UCH37 inh: -1.9; T cruzi repl: -6; RanGTP-Impb inh: -0.1; LANA-H2A inh: 2.0; Beta2AR agonist: 2; Beta cell apopt: -4

Results for CC1CCN(CCCNC(=O)c2ccc3c(Cl)c4c(nc3c2)CCCC4)CC1 ?
Calb FLC: -9; A1 inh: 1.0; UCH37 inh: 5.3; T cruzi repl: 22; RanGTP-Impb inh: -0.5; LANA-H2A inh: 0.4; Beta2AR agonist: 3; Beta cell apopt: 7

Results for CCNc1nc(N)nc(Oc2ccc(OCCOc3ccc(Cl)cc3Cl)nn2)n1 ?
Calb FLC: -8; A1 inh: -0.2; UCH37 inh: 2.3; T cruzi repl: 66*; RanGTP-Impb inh: 7.6; LANA-H2A inh: -4.2; Beta2AR agonist: -26; Beta cell apopt: 4

How did CCN(CCCc1ccccc1)CCCc1ccccc1 do in these assays?
UCH37 inh: 1.0; T cruzi repl: 36; RanGTP-Impb inh: 2.8; LANA-H2A inh: 38*; Beta2AR agonist: 4

What do the screens show for `O=C(COC(=O)/C=C/c1ccccc1[N+](=O)[O-])NCC(F)(F)F`?
Calb FLC: 20; A1 inh: -0.4; UCH37 inh: 5.9; T cruzi repl: -13; RanGTP-Impb inh: -0.7; LANA-H2A inh: 0.2; Beta2AR agonist: 5; Beta cell apopt: -1

Results for Cc1ccc(-c2ccc(=O)n(Cc3cccc(Br)c3)n2)cc1 ?
Calb FLC: 20; A1 inh: 1.0; UCH37 inh: -0.7; T cruzi repl: -6; RanGTP-Impb inh: 5.5; LANA-H2A inh: -2.6; Beta2AR agonist: -7; Beta cell apopt: -5

Results for Cc1c(Cl)cccc1NC(=O)NCc1ccncc1 ?
Calb FLC: -3; A1 inh: 0.6; UCH37 inh: 0.7; T cruzi repl: -12; RanGTP-Impb inh: -0.5; LANA-H2A inh: -2.2; Beta2AR agonist: 2; Beta cell apopt: -3

How did CCOc1cc(CNC(C)(C)CO)cc(Br)c1OCc1ccc(Cl)cc1Cl do in these assays?
Calb FLC: -22; A1 inh: 0.5; UCH37 inh: 3.2; T cruzi repl: 51; RanGTP-Impb inh: -3.5; LANA-H2A inh: -3.8; Beta2AR agonist: 34; Beta cell apopt: 13

Results for COc1ccccc1CC(NC(C)=O)C(=O)NC1CCN(C(=O)Nc2cccc(F)c2)CC1 (configuration not stated) ?
Calb FLC: -3; UCH37 inh: 6.7; T cruzi repl: 5; RanGTP-Impb inh: -2.9; Beta2AR agonist: -1

How did Cc1csc(NC(=O)c2cc(C)oc2C)n1 do in these assays?
Calb FLC: 0; A1 inh: -5.9; UCH37 inh: -2.1; T cruzi repl: -4; RanGTP-Impb inh: -1.6; LANA-H2A inh: -3.3; Beta2AR agonist: 4; Beta cell apopt: -6

How did CCN(C(=O)CSc1nnc(-c2ccncc2)n1Cc1ccccc1)C1CCS(=O)(=O)C1 (configuration not stated) do in these assays?
Calb FLC: inconclusive; A1 inh: 0.8; UCH37 inh: 1.8; T cruzi repl: 9; RanGTP-Impb inh: -4.0; LANA-H2A inh: 4.0; Beta2AR agonist: 1; Beta cell apopt: -2

Results for CCOc1ccc(C2C(C(=O)C3CC3)N3C=C(C#N)C=CC3C2(C#N)C#N)cc1 (configuration not stated) ?
Calb FLC: 41; A1 inh: 0.5; T cruzi repl: -47; RanGTP-Impb inh: 30*; LANA-H2A inh: 0.1; Beta cell apopt: -6

How did Cc1ccc[n+](C(C)C(=O)c2ccc(-c3ccccc3)cc2)c1 (configuration not stated) do in these assays?
Calb FLC: -17; A1 inh: -0.6; UCH37 inh: -0.1; T cruzi repl: 2; RanGTP-Impb inh: 1.3; LANA-H2A inh: 1.3; Beta2AR agonist: -2

Results for CCCC(=O)Nc1ccc(-c2nc3cc(C)c(C)cc3o2)cc1 ?
Calb FLC: 33; A1 inh: -0.8; UCH37 inh: -14; T cruzi repl: 18; RanGTP-Impb inh: -0.7; LANA-H2A inh: -1.0; Beta2AR agonist: 2; Beta cell apopt: 10

How did CCN(C(=O)COC(=O)/C=C/c1cnc2ccccc2n1)c1ccccc1 do in these assays?
Calb FLC: -7; A1 inh: -0.2; UCH37 inh: 4.4; T cruzi repl: -8; RanGTP-Impb inh: -0.6; LANA-H2A inh: -1.6; Beta2AR agonist: 2; Beta cell apopt: -3

How did CC(C)Oc1ccc(CNC(=O)CCC(=O)N2CC(C)Sc3ccccc32)cc1 (configuration not stated) do in these assays?
Calb FLC: 5; A1 inh: 0.0; UCH37 inh: 2.9; T cruzi repl: 4; RanGTP-Impb inh: -1.9; LANA-H2A inh: 27*; Beta2AR agonist: -11; Beta cell apopt: -3

What do the screens show for `Cc1cc2cc(CCNC(=O)c3ccc(C)c([N+](=O)[O-])c3)c(=O)[nH]c2cc1C`?
Calb FLC: 31; A1 inh: -0.1; UCH37 inh: 3.3; T cruzi repl: -4; RanGTP-Impb inh: 0.3; LANA-H2A inh: -0.1; Beta2AR agonist: -3; Beta cell apopt: -1

Results for c1ccc2c(c1)Cn1c-2nc2ccccc21 ?
Calb FLC: 12; A1 inh: -13; UCH37 inh: -0.5; T cruzi repl: -1; RanGTP-Impb inh: 0.8; LANA-H2A inh: 5.2; Beta2AR agonist: 1; Beta cell apopt: 16

What do the screens show for `COc1ccc(S(=O)(=O)N2c3cc(C)ccc3OCC2C(C)(C)C)cc1` (configuration not stated)?
Calb FLC: 3; A1 inh: 0.5; UCH37 inh: 0.1; T cruzi repl: 29; RanGTP-Impb inh: 6.0; LANA-H2A inh: -2.3; Beta2AR agonist: 3; Beta cell apopt: 4

What do the screens show for `CCOC(=O)C1(CCc2ccccc2)CCN(C(=O)c2cccc(C)n2)CC1`?
Calb FLC: -11; A1 inh: 2.1; UCH37 inh: 2.1; T cruzi repl: 1; RanGTP-Impb inh: -2.2; LANA-H2A inh: -0.9; Beta2AR agonist: -1; Beta cell apopt: -2

Results for CC1CCCC(N2CCN(C(=O)c3ccccc3F)CC2)C1 (configuration not stated) ?
Calb FLC: -9; A1 inh: -0.1; UCH37 inh: 5.2; T cruzi repl: -8; RanGTP-Impb inh: 1.3; LANA-H2A inh: -2.3; Beta2AR agonist: -2

Results for CNC(=S)N(CCc1c(C)[nH]c2ccc(Cl)cc12)Cc1cc(OC)c(OC)c(OC)c1 ?
Calb FLC: 9; A1 inh: inconclusive; UCH37 inh: 5.2; T cruzi repl: 15; RanGTP-Impb inh: -0.8; LANA-H2A inh: 5.7; Beta2AR agonist: 6; Beta cell apopt: -4

Results for COC(=O)C1=C(C)N(Cc2ccccc2)C(=NCCCCO)N[C@H]1CCc1ccccc1 ?
Calb FLC: -5; A1 inh: 1.0; UCH37 inh: 5.1; T cruzi repl: 19; RanGTP-Impb inh: 0.0; LANA-H2A inh: 0.8; Beta2AR agonist: 1; Beta cell apopt: 3

Sorted by heavy-atom count (lowest first): 3 of the compounds above.
Results for CC1CCCC(N2CCN(C(=O)c3ccccc3F)CC2)C1 (configuration not stated) ?
Calb FLC: -9; A1 inh: -0.1; UCH37 inh: 5.2; T cruzi repl: -8; RanGTP-Impb inh: 1.3; LANA-H2A inh: -2.3; Beta2AR agonist: -2

Results for CCCC(=O)Nc1ccc(-c2nc3cc(C)c(C)cc3o2)cc1 ?
Calb FLC: 33; A1 inh: -0.8; UCH37 inh: -14; T cruzi repl: 18; RanGTP-Impb inh: -0.7; LANA-H2A inh: -1.0; Beta2AR agonist: 2; Beta cell apopt: 10

How did CCOc1cc(CNC(C)(C)CO)cc(Br)c1OCc1ccc(Cl)cc1Cl do in these assays?
Calb FLC: -22; A1 inh: 0.5; UCH37 inh: 3.2; T cruzi repl: 51; RanGTP-Impb inh: -3.5; LANA-H2A inh: -3.8; Beta2AR agonist: 34; Beta cell apopt: 13
